Screening data: PubChem, SRMLSC
H5N1 CPE: antiviral screen in MDCK cells, H5N1 avian flu; cytopathic effect, luminescence, 72 h; hits give high values; no value below 0 was filed and about half of the inactive calls have no number; reference of the scale not given here; 96,000 tested, 0.07% active; AID 740; inhibition, % at 50 µM; in the data active = inhibition above about 25%
Numbers without * were called inactive; i = inactive. Some of the compounds tested; count on the stated rates, not on these rows.

nr	molecule	H5N1 CPE
1	Cc1ccc(-c2nc3cccnc3s2)cc1NS(=O)(=O)c1ccc2c(c1)OCCO2	4.0
2	COc1ccc(C)c2sc(NC(=O)C3=COCCO3)nc12	0.6
3	CCOC(=O)C1=C(N)Oc2cc(C)oc(=O)c2C12C(=O)N1c3c(cc(OC)cc32)C(C)=CC1(C)C (stereo unspecified)	i
4	CC(C)[C@H](NC(=O)c1ccco1)C(=O)OCC(=O)N1CCc2ccccc21	0.3
5	COc1ccccc1NC(=O)/C(C#N)=C/C=C/c1ccco1	2.7
6	Nc1nc(CSCCO)nc(Nc2ccccc2)n1	0.1
7	CCCCn1c(O)c(C(C)=NCCCn2ccnc2)c(=O)[nH]c1=O	1.6
8	COC(=O)c1c(NC(=O)CC2NCCNC2=O)sc2c1CCCC2 (stereo unspecified)	1.1
9	Cc1onc(-c2c(F)cccc2Cl)c1C(=O)OCC(=O)NCc1ccco1	0.2
10	CC1CCCCN1C(=O)Cn1cc(/C=C2/C(=O)Nc3ccccc32)c2ccccc21 (stereo unspecified)	i
11	CSc1nc(-c2ccccc2)nn1C(=O)c1ccccc1	0.6
12	O=C(CSc1ccccn1)N1CCN(c2ccc(Cl)cc2)CC1	2.0

Later entries:
nr	molecule	H5N1 CPE
13	O=C(CC1Oc2ccccc2NC1=O)NC1CCCC1 (stereo unspecified)	0.1
14	Cc1cc(C)c(S(=O)(=O)c2ccccc2C)c(OCC(C)(C)C)n1	0.7
15	CN(C)c1ccc(-c2nc3n(n2)C(c2cccnc2)C2=C(CC(C)(C)CC2=O)N3)cc1 (stereo unspecified)	i
16	Cc1c(C)c2c(C)[nH]nc2oc1=O	i
17	CCc1c(C)nc2ncnn2c1N1CCCC(C(=O)NCCc2ccc(OC)cc2)C1 (stereo unspecified)	1.2
18	CCOC(=O)c1[nH]c2c(c1C)C(=O)CC(c1ccc(N(C)C)cc1)C2 (stereo unspecified)	i
19	CCOc1ccc(Nc2nc3cc(S(=O)(=O)N(CC)CC)ccc3o2)cc1	i
20	CCN(CCCNC(=O)C1CCN(S(=O)(=O)CC)CC1)c1ccccc1	i
21	Cc1n[nH]c(C)c1S(=O)(=O)N1CCCC(C(=O)NCc2cccs2)C1 (stereo unspecified)	0.7
22	O=C(COc1ccc(Cl)cc1Cl)N1CCN(C/C=C/c2ccccc2)CC1	1.2
23	COc1cccc(C(=O)Nc2ccc(NC(=O)c3ccco3)nc2)c1	i
24	Cc1nn(Cc2ccc(Cl)cc2Cl)c(Cl)c1/C=C/C(=O)OCC(=O)NCC(F)(F)F	0.7

Next part
nr	molecule	H5N1 CPE
25	Cc1noc(C)c1CSCC(=O)Nc1nc2ccc(Oc3ccccc3)cc2s1	i
26	O=C(N/N=C/c1ccc(OC(=O)c2cccs2)cc1)c1ccc(F)cc1	0.8
27	O=C(CSc1nnc(Cc2ccccc2)o1)N1CCc2ccccc21	i
28	CC1CCN(CCCNC(=O)c2cc3c(=O)n(C)c4ccccc4c3n2C)CC1	i
29	CCOC(=O)c1ccc(NC(=O)CSCc2ccco2)cc1	0.1
30	N#Cc1c(-c2ccccc2)c(-c2ccccc2)nn(CC(=O)NNC(=O)Nc2ccc(Cl)c(Cl)c2)c1=O	i
31	O=C(NCc1cn(-c2ccccc2)nc1-c1ccccc1)c1cc([N+](=O)[O-])cc([N+](=O)[O-])c1	0.2
32	O=C(O)CCC(=O)N1CCN(c2ccc(C(=O)c3ccc(F)cc3)cc2)CC1	i
33	O=C(Nc1nc2ccccc2s1)C1CC(=O)N(c2ccc(F)cc2)C1 (stereo unspecified)	0.9
34	O=C(CSc1nnc(-c2ccccn2)n1Cc1ccco1)c1ccc(Cl)cc1	0.1
35	COC(=O)C1C(O)=C(C=NCc2ccccc2)C(=O)CC1(C)C (stereo unspecified)	i
36	CCN(CC)S(=O)(=O)c1cccc(-c2nnc(SCC(=O)c3ccc(Cl)s3)n2C)c1	i

New compounds follow:
nr	molecule	H5N1 CPE
37	Cc1nn2c(N)c(C#N)cnc2c1-c1ccc(Cl)cc1	i
38	COc1ccc(OC)c(S(=O)(=O)NCC2CCCO2)c1 (stereo unspecified)	1.4
39	CSc1nncc(/C(C)=N\Nc2cccc(C)c2)n1	6.3
40	CCP(=O)(CC)c1cccc(N)c1	0.6
41	COc1ccc(-c2nc(N3CCCCCC3)sc2C(=O)c2ccccc2)cc1	3.2
42	CCOC(=O)c1c(N=CN(C)C)c(C#N)n2c1CCC2	0.6
43	Cc1ccc(-c2ccc(=O)n(CCC(=O)NCc3ccccn3)n2)cc1	1.3
44	COc1cc(NC(=O)C2CCN(S(=O)(=O)c3cccnc3)CC2)cc(OC)c1OC	i
45	CC(=O)Nc1cnc(NC(=O)c2cccc(F)c2)cc1C	i
46	COc1cccc(C(=O)CSc2nnc(CNc3nc(-c4ccccc4)cs3)n2C)c1	i
47	COc1ccc(C(=O)Nn2c(SCC(=O)c3ccc(Cl)cc3)nc3ccccc3c2=O)cc1	i
48	CCN(CC)c1ccc(NC(=O)c2c(OC)cccc2OC)c(C)c1	i

Next part:
nr	molecule	H5N1 CPE
49	O=C(CCCc1ccccc1)Nc1cccc2c1CCCC2	i
50	Cc1ccc2nc(CSc3nc(C)ccc3C#N)[nH]c2c1	0.4
51	Cc1ccc2c(c1)CN1CN2Cc2cc(C)ccc21	i
52	COc1ccc(OCCC(=O)N2CCCCC2)cc1	0.8
53	Cc1cc(-n2nc(C)cc2C)n2nc(C)c(-c3ccc(Cl)cc3)c2n1	i
54	COc1ccc(-c2cc(C(F)(F)F)n3ncc(C(=O)O)c3n2)cc1OC	1.0
55	CCOC(=O)c1[nH]c2ccc(OCC)cc2c1NC(=O)CN1CCN(c2ccccn2)CC1	0.7
56	Cc1noc(C)c1S(=O)(=O)N1CCN(c2ccccc2)CC1	i
57	O=C(c1cc2cc([N+](=O)[O-])ccc2oc1=O)N1CCN(c2ncccn2)CC1	1.1
58	CC(Oc1ccc(F)cc1F)C(=O)/C=C/N(C)C (stereo unspecified)	i
59	O=c1[nH]c(=O)n(Cc2ccc(F)cc2)c(O)c1C=NCCCN1CCOCC1	0.9
60	CCCCN(CCCC)S(=O)(=O)c1ccc(NC(=O)c2cccs2)cc1	i

(more compounds)
nr	molecule	H5N1 CPE
61	CCOc1ccc2nc(NCCNC(=O)C(C)C)c(C)cc2c1	i
62	Cn1nccc1C(=O)Nc1ccc(Cl)cc1	1.1
63	O=C(CSc1nnc(CNC(=O)c2ccco2)o1)c1ccc(Cl)cc1	i
64	O=C(CN1C(=O)c2ccccc2C1=O)Nc1sc2c(c1C(=O)NCc1ccco1)CCCC2	0.7
65	CC12CN3CC(C)(CN(C1)C3c1cccnc1)C2=O (stereo unspecified)	i
66	Cc1cccc(C)c1NC(=S)NNc1ncc(C(F)(F)F)cc1Cl	i
67	CCCc1cc(=O)[nH]c(/N=C(\N)Nc2ccccc2)n1	i
68	Nc1nnc(SCC(=O)c2ccco2)s1	0.6
69	CCc1noc(C)c1C(=O)Nc1ncc(C)s1	1.2
70	CN1CCN(C(=O)c2cnn(-c3ccccc3)c2NC(=O)c2ccccc2F)CC1	i
71	COc1ccc(CNC(=O)CCc2c(C)nc3ncnn3c2C)cc1	i
72	COc1ccccc1N1CCN(S(=O)(=O)c2cnc[nH]2)CC1	0.7

(continued)
nr	molecule	H5N1 CPE
73	CCOc1ccc(C(=O)OCC(=O)Nc2nc(OC)cc(OC)n2)cc1OCC	1.4
74	CCOC(=O)C1CCN(C(=O)CN(c2ccc3c(c2)OCO3)S(C)(=O)=O)CC1	0.5
75	CC1(C)Cc2ccccc2-c2nc(NCCO)n(-c3ccccc3)c(=O)c21	0.8
76	Cc1cc(C)cc(CC2CC(=O)N(c3cc(C)on3)C2=O)c1 (stereo unspecified)	i
77	CCCCn1c(Cc2ccccc2)n[nH]c1=S	1.3
78	O=C(NCc1ccc2c(c1)OCO2)c1ccc(-n2cnnn2)cc1	0.4
79	Cc1ccc(C)c(Cn2c(=O)n(CCCC(=O)NCc3ccco3)c(=O)c3sccc32)c1	0.1
80	CC(=O)c1ccc(NC(=O)Oc2ccccc2)cc1	i
81	CCOc1ccccc1NC(=O)N1CCC(C(=O)c2ccc(F)cc2)CC1	i
82	COc1ccc(C(CNC(=O)c2ccc(OCC3CCCO3)cc2)N2CCOCC2)cc1 (stereo unspecified)	i
83	CCOC(=O)c1cc2occc2n1CC(=O)N1CCCc2ccccc21	1.1
84	COc1cc(/C=N/NC(=O)C2c3ccccc3Oc3ccccc32)ccc1O	i

Entries shown so far that contain a COOH group:
nr	molecule	H5N1 CPE
32	O=C(O)CCC(=O)N1CCN(c2ccc(C(=O)c3ccc(F)cc3)cc2)CC1	i
54	COc1ccc(-c2cc(C(F)(F)F)n3ncc(C(=O)O)c3n2)cc1OC	1.0

Other results
nr	molecule	H5N1 CPE
85	CCOC(=O)CCc1cccc2c1CCC2=O	i
86	CCC(C)Sc1nc2c(c(=O)[nH]c(=O)n2C)n1C (stereo unspecified)	0.6
87	COC(=O)c1c(/N=C/NOCc2ccc(Cl)cc2)sc2c1CCN(c1ncc(C(F)(F)F)cc1Cl)C2	i
88	COc1ccccc1NC(=O)C1=C(C)NC2=C(C(=O)CCC2)C1c1ccc2c(c1)OCO2 (stereo unspecified)	0.1
89	O=C(O)CCC(=O)c1c[nH]c2ccccc12	0.0
90	CCOC(=O)C1=C(c2cccc(Oc3ccccc3)c2)NC(=S)NC1C (stereo unspecified)	i
91	O=C(CCn1c(SCC(=O)c2ccccc2)nc2ccccc2c1=O)NCc1ccc(F)cc1	i
92	CCOC(=O)CSc1nc2ccc(N)cc2s1	i
93	CCN(CC)S(=O)(=O)c1ccc2oc(C(=O)O)c(C)c2c1	0.4
94	O=C(Cc1ccccc1)Oc1cccc(N2C(=O)CCC2=O)c1	i
95	Cn1c(=O)cc(OCC(=O)NCCCN2CCN(Cc3ccccc3)CC2)c2ccccc21	3.4
96	COc1ccc(-c2nc(CS(=O)CC(=O)NCc3cccnc3)c(C)o2)cc1OC (stereo unspecified)	0.0

(cont.)
nr	molecule	H5N1 CPE
97	COc1ccc(C)c2sc(=NC(=O)C(C)C)n(C)c12	0.9
98	Cc1cccc(N2CCN(C(=O)CSCc3c(C)noc3C)CC2)c1C	i
99	Cc1cccc(CS(=O)(=O)Cc2ccc(C(=O)N3CCC4(CC3)OCCO4)o2)c1	i
100	COc1ccc(C2CC(=O)C3=C(C2)Nc2ncnn2C3c2ccccc2)cc1 (stereo unspecified)	1.2
101	O=C(O)c1sc2cc(C(F)(F)F)cnc2c1-c1ccccc1	i
102	O=C1COc2ccc(-c3csc(=Nc4ccc(OC(F)F)cc4)n3CC3CCCO3)cc2N1 (stereo unspecified)	i
103	Cc1ccn2c(/C=N/OCc3ccc(F)cc3)c(-c3ccc(Cl)cc3)nc2c1	0.9
104	COc1ccc(-c2noc(COc3ccc(Cl)c(C)c3)n2)cc1	0.8
105	CC1CCCC(C)N1C(=O)CSc1nnc(-c2c[nH]c3ccccc23)o1 (stereo unspecified)	1.2
106	O=c1nc2scc(-c3ccccc3)n2c2ccccc12	1.0
107	CCOc1ccc(N/C=C/C(=O)c2ccc3ccccc3c2)c([N+](=O)[O-])c1	i
108	COc1cccc(CN(C)CC(=O)NC(=O)NCc2ccco2)c1	i

Part of the list above in a different format.
(77) CCCCn1c(Cc2ccccc2)n[nH]c1=S
  H5N1 CPE = 1.3

(78) O=C(NCc1ccc2c(c1)OCO2)c1ccc(-n2cnnn2)cc1
  H5N1 CPE = 0.4

(79) Cc1ccc(C)c(Cn2c(=O)n(CCCC(=O)NCc3ccco3)c(=O)c3sccc32)c1
  H5N1 CPE = 0.1

(80) CC(=O)c1ccc(NC(=O)Oc2ccccc2)cc1
  H5N1 CPE = i

More records follow:
nr	molecule	H5N1 CPE
109	CC(=O)NCCn1c(SCC(=O)NCc2ccco2)nc2ccccc2c1=O	4.5
110	Cc1cccc(C2Nc3ccccc3C(=O)N2CCc2ccccc2)n1 (stereo unspecified)	0.3
111	CC(C)NC(=O)c1ccc(CNC(=O)OCC(F)(F)F)cc1	i
112	COc1ccc(OCC(=O)N2CCN(C(=O)COc3ccccc3)CC2)cc1	i
113	CC1CCCCC1NC(=O)CN1C(=O)NC(Cc2ccccc2)(Cc2ccccc2)C1=O (stereo unspecified)	i
114	CCN(CC)C(=O)CSC1=Nc2ccccc2C2=NC(Cc3c[nH]c4ccccc34)C(=O)N12 (stereo unspecified)	1.3
115	CCCCSP1(=S)NCCCO1 (stereo unspecified)	0.2
116	CCCOC(=O)NC1CCS(=O)(=O)C1 (stereo unspecified)	1.8
117	Cc1ccc(C(C)C)cc1S(=O)(=O)NCc1cccnc1	i
118	CCn1c2ccccc2c2nn(C)c(=N)nc21	0.1
119	O=c1[nH]c(=O)n(CCC2=CCCCC2)c(O)c1C=Nc1cccc(F)c1	0.7
120	CC(=O)c1cc2c(cc1NC(=O)CN1CCCCC1C)OCO2 (stereo unspecified)	0.2

Continued:
nr	molecule	H5N1 CPE
121	Cc1c(NC(=O)c2ccc3ncccc3c2)c(=O)n(-c2ccccc2)n1C	0.7
122	Cc1ccc(Nc2ccc([N+](=O)[O-])nc2[N+](=O)[O-])cc1	1.4
123	CCCCN1C(=O)C(O)=C(C(C)=O)C1c1ccccc1 (stereo unspecified)	i
124	CN1C(=O)CSc2ccc(NC(=O)N3CCOCC3)cc21	0.0
125	Cc1cccc(OCCCC(=O)N2CCCc3ccccc32)c1C	2.6
126	CCOC(=O)C1CCN(C(=O)c2cccc(Cl)c2)CC1	0.6
127	CCC(C)C1NC(=S)N(Cc2ccccc2)C1=O (stereo unspecified)	0.8
128	CCOC(=O)C1(C(=O)OCC)CC1c1ccccc1 (stereo unspecified)	i
129	O=C(O)Cc1ccc(NC(=O)C2CC=CCC2C(=O)O)cc1 (stereo unspecified)	0.5
130	COc1cccc(NC(=O)CCN2CCC(C(N)=O)CC2)c1	0.5
131	COc1cc(/C=c2\s/c(=C(/C#N)C(=O)N3CCCC3)n(-c3ccccc3)c2=O)ccc1O	0.4
132	CCOc1ccc(NC(=O)c2cc3c(C)nc4ccccc4c3o2)cc1	0.1
